Screening results as filed in PubChem.
Mtb growth – M. tuberculosis H37Rv growth inhibitors, H37Rv strain (AID 1626). M. tuberculosis H37Rv growth inhibition; higher % means a stronger effect. hit rate 0.95% among 220,000. one-dose inhibition, % at 10 µM; IC50 in µM for titrated hits;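 active means confirmed in a dose series; inconclusive means inhibition above 80% but not taken into the dose series; inactive means below 80% or under 30% at every dose of the series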;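 further: bacteria incubated seven days before Alamar blue readout; 0% = bacteria only wells and 100% = bacteria with antibiotic wells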
Mtb bLac sens – beta-lactam sensitization of Mtb H37Rv | inhibition, % at 25 µM | hit rate 0.27% among 330,000 | M. tuberculosis H37Rv growth with meropenem, percent inhibition; hits of this screen are not shown here | AID 434955;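 active means about 74% or more and at least 40 points above the plate without the antibiotic, then above 30% in a dose series; inconclusive means first-round hits that could not be retested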;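 further: growth measured after seven days incubation then overnight dye step; 0% = bacteria only wells and 100% = bacteria with antibiotic; twin plates without the antibiotic show which effects depend on it; some results filed as inactive read as strong as hits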
YopH PTP inh – YopH (Yersinia) phosphatase inhibition | fluorescence Ex485/Em525 | inhibition, %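 (about 10 µM by stock and volumes)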 | hit rate 0.16% among 140,000 | AID 898;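 active means inhibition of 50% or more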;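 further: controls were vehicle for no effect and minimum signal wells for full effect; inactives centre near -20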
Arbovirus inh – arbovirus infection inhibition. arbovirus infection cell-based antiviral screen. inhibition, % at 10 µM. hit rate 0.37% among 200,000. AID 1251;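 active means inhibition from about 30%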;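 further: bluetongue infection of BSR cells; cell survival read as ATP light after 72 h; 0% = infected wells without compound and 100% = uninfected wells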
RecA splice inh – Mtb RecA intein splicing inhibition | cell-free RecA intein splicing, fluorescence | inhibition, %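 (about 9 µM by stock and volumes)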 | P9WHJ3 | hit rate 0.75% among 290,000; in the data active means inhibition above about 30%; inconclusive means no clear call, values can overlap the other calls;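 further: 0% = vehicle wells and 100% = reference inhibitor control wells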
Target sequence (P9WHJ3 whole entry, looked up, canonical isoform): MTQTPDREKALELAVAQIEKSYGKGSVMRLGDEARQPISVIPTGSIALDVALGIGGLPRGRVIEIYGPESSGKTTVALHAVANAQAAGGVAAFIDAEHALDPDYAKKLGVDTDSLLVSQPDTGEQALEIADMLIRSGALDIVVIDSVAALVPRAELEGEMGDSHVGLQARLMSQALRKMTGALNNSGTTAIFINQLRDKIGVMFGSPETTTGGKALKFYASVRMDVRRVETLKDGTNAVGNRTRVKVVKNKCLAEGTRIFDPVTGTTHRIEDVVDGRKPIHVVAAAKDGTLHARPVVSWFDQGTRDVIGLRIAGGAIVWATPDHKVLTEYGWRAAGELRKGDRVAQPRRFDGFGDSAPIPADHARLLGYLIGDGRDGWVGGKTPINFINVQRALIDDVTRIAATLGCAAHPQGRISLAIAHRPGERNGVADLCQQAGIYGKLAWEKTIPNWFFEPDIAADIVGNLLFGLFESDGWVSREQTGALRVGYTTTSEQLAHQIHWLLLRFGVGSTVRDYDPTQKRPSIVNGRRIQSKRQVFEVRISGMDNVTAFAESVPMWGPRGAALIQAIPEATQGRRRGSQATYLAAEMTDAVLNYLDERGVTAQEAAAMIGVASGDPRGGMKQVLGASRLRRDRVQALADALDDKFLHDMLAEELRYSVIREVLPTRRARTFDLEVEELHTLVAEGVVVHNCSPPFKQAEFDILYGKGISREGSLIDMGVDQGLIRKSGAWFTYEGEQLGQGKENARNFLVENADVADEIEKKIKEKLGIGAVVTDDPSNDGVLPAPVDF
Arbovirus inh repeat – also measured in Arbovirus inh; calls as there; inhibition, %; measured here: 10K subset replicate screen; many hits read low in the repeat;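 first of two repeat runs on a subset; 0% = infected and 100% = uninfected wells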
* marks the source's active call; other numbers are inactive results; ? = inconclusive; nt = no result given.

SMILES | Mtb growth | Mtb bLac sens | YopH PTP inh | Arbovirus inh | RecA splice inh | others
COc1ccc(N2CCN(C(CNC(=O)C(=O)NCC3CCCO3)c3ccco3)CC2)cc1 (stereo unspecified) | -2% | -6 | -19 | -3 | -3.9
Cc1cc(C)nc(N/N=C2/CCSc3ccc(F)cc32)n1 | nt | 10 | nt | nt | 2.9
O=C(COc1cc2oc(=O)cc(-c3ccccc3)c2cc1Cl)NCCN1CCOCC1 | nt | 4 | nt | nt | -4.4
COc1ccc(S(=O)(=O)N2CCCC(C(=O)NC3CC3)C2)cc1Cl (stereo unspecified) | nt | 5 | nt | nt | -1.3
COc1ccc(Cl)cc1C(=O)Nn1cnc2ccccc2c1=O | -1% | -1 | -56 | -9 | 1.2
COCCN1Cc2cccc(C(=O)N3CCN(c4ccccc4)CC3)c2C1=O | -5% | -1 | -19 | 0 | -1.9
COc1ccccc1OCCN(C#N)c1nc(N(C)C)nc(N(C)C)n1 | -6% | 2 | nt | 3 | nt
COc1ccc2nc(Sc3c([N+](=O)[O-])nc(C)n3Cc3ccccc3)[nH]c2c1 | -5% | 69 | -29 | -18 | 29
COc1ccc(Nc2nc(C)cc(C)c2C#N)cc1OC | 0% | -3 | -23 | 7 | -4.1 | Arbovirus inh repeat=1
CCOC(=O)C1CCCN(C2=C(NS(=O)(=O)c3ccc(Br)cc3)C(=O)c3ccccc3C2=O)C1 (stereo unspecified) | nt | 10 | nt | nt | 25
NC(=O)CSc1nc2ccccc2c(=O)n1CCc1ccccc1 | nt | 4 | nt | nt | 0.0
COc1ccc(C2C(C#N)=C(C)NC3=C2C(=O)c2ccccc23)cc1 (stereo unspecified) | -1% | 7 | -39 | -12 | 2.4
Cc1ccc2[nH]cc(C(=O)CN3CCN(c4ccccn4)CC3)c2c1 | 2% | -8 | -16 | 6 | nt
O=C(Nc1ccccc1Cl)c1cccc(NC(=O)C2CCCC2)c1 | nt | 5 | nt | nt | 2.8
NC(=O)COC(=O)c1cccc(S(=O)(=O)N2CCN(c3ccccc3)CC2)c1 | -10% | 7 | nt | 9 | -4.5
COc1ccccc1S(=O)(=O)Cc1ccc(C(=O)N2CCN(c3cccc(Cl)c3)CC2)o1 | -10% | 0 | -27 | -31 | 5.1
O=C(OCC#CCSc1nnc(-c2ccc([N+](=O)[O-])cc2)o1)c1cccs1 | <0.2µM* | 100 | 3 | 4 | -1.5
CCCn1c2ccccc2c2nnc(SCC(=O)OC)nc21 | 1% | 9 | -26 | 2 | 1.1
COc1ccccc1CNC(=O)COC(=O)c1ccc(-n2cnnn2)cc1 | nt | -5 | nt | nt | -1.9
O=c1[nH]c(CCC2CCCC2)nc2ccccc12 | 5% | 6 | -20 | 0 | -0.8
CCOCCCn1c(=S)[nH]c2cc(C(=O)NCCc3ccc(OC)c(OC)c3)ccc2c1=O | nt | 2 | nt | nt | -3.8
CC(C)C[C@H](NC(=O)c1nc[nH]c1C(=O)N1CCNCC1)C(=O)OC(C)(C)C | nt | -3 | nt | nt | 2.9
O=C(NC(Cc1ccccc1)C(=O)N1CCC2(CC1)OCCO2)C1CCCCC1 (stereo unspecified) | -10% | ? | -27 | -7 | -2.4
O=C1c2ccccc2C(=O)N1C/C=C/CN1C(=O)c2ccccc2C1=O | -8% | nt | -8 | 2 | -0.1 | Arbovirus inh repeat=-3
Cc1ccc(CN(c2ccc(C(=O)Nc3ccc4c(c3)OCO4)cc2)S(C)(=O)=O)cc1 | 7% | -2 | -13 | -9 | 3.4

Remaining list, next part
SMILES | Mtb growth | Mtb bLac sens | YopH PTP inh | Arbovirus inh | RecA splice inh | others
CC(=O)Nc1ccc(NC(=O)CCCSc2nc3ccccc3s2)cc1 | -2% | -11 | nt | 3 | 1.2
Cc1[nH]c(C)c(S(=O)(=O)N2CCCCC2C)c1C(=O)N1CCCC1 (stereo unspecified) | nt | -5 | nt | nt | -10
COc1ccc(C(=O)NCCCn2ccnc2)cc1[N+](=O)[O-] | 0% | 60 | nt | nt | 0.9
Cc1nc2sc(C(=O)OCC(=O)N3c4ccccc4CC3C)c(C)c2c(=O)[nH]1 (stereo unspecified) | 12% | 3 | nt | 1 | 2.0
Cc1cc(C)c(C)c(S(=O)(=O)N[C@@H](C)C(=O)OCC(N)=O)c1C | -7% | -3 | nt | 3 | -1.1
O=P(O)(CN1CCCCCC1)CN1CCCCCC1 | -7% | nt | 6 | 0 | 1.7 | Arbovirus inh repeat=-1
CC12CC(c3ccccc3O1)C(C(=O)N1CCOCC1)C(=O)N2 (stereo unspecified) | -9% | -4 | -14 | -3 | 0.2
COc1cccc(N2C(=NC(=O)CCc3ccccc3)SC3CS(=O)(=O)CC32)c1 (stereo unspecified) | nt | -5 | nt | nt | -1.9
O=C(c1ccc2c(c1)OCO2)N1CCN(S(=O)(=O)c2ccccc2)CC1 | nt | -6 | nt | nt | -1.7
O=C(CCN1C(=O)c2ccccc2C1=O)NCCCn1ccnc1 | 3% | 7 | nt | 3 | nt
CCOC(=O)C1=C(O)/C(=C/c2ccc(OCC(=O)O)c(OCC)c2)SC1=Nc1ccccc1 | 0% | 48 | nt | -1 | -1.4
COCCNC(=O)CN(C(=O)CCC(=O)Nc1ccccn1)c1ccc(F)c(Cl)c1 | -2% | -10 | -51 | -2 | -2.2
c1ccc2c(CN3CCCCCC3)c[nH]c2c1 | -7% | 1 | nt | 7 | -3.5
Cc1ccccc1Cn1c(=O)n(Cc2ccco2)c(=O)c2ccccc21 | 6% | -6 | -12 | -3 | 1.8
COc1ccc(NC(=O)CS(=O)CC(=O)NCC2OCCc3ccccc32)cc1 (stereo unspecified) | 2% | -9 | nt | 7 | -0.7
Cc1nn(-c2ccccc2)c(C)c1/C=N/NC(=O)c1ccccc1NS(=O)(=O)c1cccs1 | 1% | 0 | -41 | -5 | -1.2
O=C(c1ccccc1)N1CCC(=O)N1c1ccccc1 | 8% | -3 | -55 | -7 | 1.6
CCCCOc1ccc(NC(=O)C2CC=CCC2C(=O)O)cc1 (stereo unspecified) | 76µM* | 97 | -41 | 2 | 3.7 | Arbovirus inh repeat=-1
CCOc1ccccc1N1CCN(C(=O)c2c(CC)noc2C)CC1 | nt | 1 | nt | nt | 0.7
COC(=O)[C@@H](NC(=O)Nc1ccc(C(C)=O)cc1)C(C)C | -4% | 5 | -46 | 5 | -0.5
CC(C)c1ccc(NC(=O)N2CCC(c3nc4ccccc4o3)CC2)cc1 | -3% | 3 | -22 | -4 | 0.7
O=C(O)c1cc2nccc(-c3ccc(F)cc3)n2n1 | -12% | -6 | nt | -2 | -2.0
c1ccc(-c2cc(NCCN3CCCCC3)c3ccccc3n2)cc1 | nt | -3 | nt | nt | 0.5
O=C1N/C(=C/c2ccc(Br)s2)C(=O)N1c1ccccc1 | -5% | 6 | nt | -14 | nt
Cc1nc(Cl)c(C(=O)NC(=O)Nc2cccc(C(F)(F)F)c2)c(C)c1[N+](=O)[O-] | -2% | 7 | 33 | 6 | -0.9

Continued:
SMILES | Mtb growth | Mtb bLac sens | YopH PTP inh | Arbovirus inh | RecA splice inh | others
COc1cc2[nH]c(=O)n(CCCCCC(=O)N3CCN(c4ccccc4)CC3)c(=O)c2cc1OC | -7% | 4 | 21 | -3 | 3.4 | Arbovirus inh repeat=-5
Cc1cc2n(n1)C(c1ccc(O)cc1)Nc1ccccc1-2 (stereo unspecified) | 2% | 13 | -37 | 6 | 1.1
O=C1N=c2ccc(Br)cc2=C1c1sc(=S)n(NS(=O)(=O)c2ccccc2)c1O | -7% | 12 | nt | 10 | 4.9
CC/C(O)=N\S(=O)(=O)c1ccc(N=NN(C)C)cc1 | 1% | -3 | -7 | -3 | -1.1
O=C(NC1CCCC1)c1cc(COc2ccc3ncccc3c2)on1 | 5% | -6 | nt | nt | -1.9
CCN1/C(=C\C=C\C2=[N+](CC)c3ccccc3C2(C)C)C(C)(C)c2ccccc21 | nt | 80 | 27 | -32 | 23
COc1ccc(Cc2nc(-c3ccccn3)no2)cc1OC | -4% | -1 | nt | 17 | -4.5
COc1ccc(CCNC(=O)CCC(=O)N2CCN(S(=O)(=O)c3ccc(Cl)cc3)CC2)cc1OC | 3% | -9 | -22 | -4 | 1.1
CCN1CCN(c2cc(C)c3cc(NC(=O)CCC(=O)N4CCN(c5ccccc5OC)CC4)ccc3n2)CC1 | nt | 9 | nt | nt | 1.7
CCOc1ccc(CCNC(=O)COC(=O)c2c(C)nn(-c3ccccc3)c2C)cc1OCC | nt | -5 | nt | nt | 2.3
CCCC(=O)N=C1SC2CS(=O)(=O)CC2N1c1ccc(C(C)=O)cc1 (stereo unspecified) | 0% | -2 | -32 | 0 | 1.3
CCN(CC)CCNC(=O)Cn1c(-c2ccccn2)nc2ccccc21 | 13% | 0 | 8 | 7 | -2.9
CCOc1ccc(N2CC(C(=O)N3CCc4ccccc43)CC2=O)cc1 (stereo unspecified) | nt | -1 | nt | nt | 1.1
O=C1COc2cc(ccc2[N+](=O)[O-])Oc2ccc(cc2Cl)C(=O)CCCCO1 | nt | 92 | nt | nt | 1.1
COc1ccc(C)cc1NC(=O)COC(=O)Cc1ccc(-c2ccccc2)cc1 | -9% | 14 | -11 | 1 | 11
CCN=C(NCC)SC1CC(=O)N(c2ccc(OCC)cc2)C1=O (stereo unspecified) | 0% | -1 | nt | 0 | -3.9
CCOc1cc(NC(=S)Nc2ccccc2OC)c(OCC)cc1NC(=O)c1ccccc1C | -1% | 3 | -5 | 2 | -1.0
COc1nc(-c2ccccc2)cc(-c2ccccc2)n1 | 6% | 62 | 2 | 11 | 10
O=C(CN1C(=O)NC2(CCCC2)C1=O)OCc1ccc(Cl)c(Cl)c1 | nt | -6 | nt | nt | -1.9
NS(=O)(=O)c1ccc(-c2ccc(/C=N/Nc3ccc(C(=O)O)cc3)o2)cc1 | 13% | 28 | nt | nt | -71
COc1c(C(CC(C)C)OC(C)=O)ccc2c1C(=O)OCc1cc(C)cc(O)c1O2 (stereo unspecified) | 1% | -3 | nt | nt | 2.0
COc1ccc(C2=NOC(C(=O)Nc3c(C)n(C)n(-c4ccccc4)c3=O)C2)cc1 (stereo unspecified) | 0% | -2 | -22 | -3 | -0.5
O=Cc1c(NCc2ccc(Cl)cc2)c2ccccc2[nH]c1=O | nt | 2 | nt | nt | 3.4
COc1ccc(NC(=O)CCN2CCN(S(=O)(=O)c3ccc(Cl)cc3)CC2)cc1 | -2% | -1 | -35 | 1 | 0.1
Cc1ccccc1Nc1sc(C(=O)Nc2cccc(Cl)c2)c(N)c1C(N)=O | 6% | nt | -16 | -4 | -2.9

More structures.
SMILES | Mtb growth | Mtb bLac sens | YopH PTP inh | Arbovirus inh | RecA splice inh | others
CCOc1ccc(CCNC(=O)COC(=O)c2sccc2C)cc1OCC | nt | -14 | nt | nt | 3.8
C=CCn1cc(C(=O)NCc2cccnc2)c(=O)c2cc(S(=O)(=O)N(CC)CC)ccc21 | -5% | -1 | -27 | -5 | 1.7 | Arbovirus inh repeat=-3
O=C(N/N=C/c1cccnc1)C1CCCCC1 | 0% | 3 | nt | 25 | -1.1
Cc1noc(C)c1COc1cccc(C(=O)OC(C)C(=O)Nc2c(C)n(C)n(-c3ccccc3)c2=O)c1 (stereo unspecified) | -7% | -9 | nt | 3 | -0.9
Cc1cc(Cl)ccc1C(=O)C1CCCN(C(=O)c2cnsn2)C1 (stereo unspecified) | -3% | 0 | nt | 7 | 3.4
O=C(c1n[nH]c2ccccc12)N1CCCCC1 | -9% | 12 | nt | 5 | 1.9
COc1cccc(C(=O)NCCS(=O)(=O)N2CCCC2)c1 | nt | -8 | nt | nt | -1.5
Cc1ccccc1-n1ccnc1SCC(=O)NCc1ccco1 | -3% | -10 | nt | -1 | 0.4
O=C(CCc1ccncc1)N1CCCC(Nc2ccc(F)c(F)c2)C1 (stereo unspecified) | nt | -12 | nt | nt | -3.7
c1ccc(OCc2nc(-c3ccccc3)no2)cc1 | -3% | -6 | -8 | -8 | nt
CC(C)OC(=O)CC(=O)CSc1nc2c(cc1C#N)CCCCC2 | 2% | -3 | 17 | 4 | -9.4

An excerpt; the hit share may differ from the screen's.
